GIV Gai3 FP: inhibitors of GIV peptide binding to Galpha-i3, primary screen, biochemical, fluorescence polarization, FITC-GIV GBA peptide, rat Galphai3; 210,000 tested, 0.42% active; 90 min; active compounds read low; scaled: aluminum fluoride 0%, vehicle 100%; percent of control (FP), % (test concentration not listed);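 active means replicate mean at 85% of control or lower, very high polarization wells dropped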;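 further: lower values mean more displacement of the GIV peptide from Galpha-i3; wells of about 15 µL received 100 nL stock; the first replicate is given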
Target sequence (P08753 whole entry, looked up): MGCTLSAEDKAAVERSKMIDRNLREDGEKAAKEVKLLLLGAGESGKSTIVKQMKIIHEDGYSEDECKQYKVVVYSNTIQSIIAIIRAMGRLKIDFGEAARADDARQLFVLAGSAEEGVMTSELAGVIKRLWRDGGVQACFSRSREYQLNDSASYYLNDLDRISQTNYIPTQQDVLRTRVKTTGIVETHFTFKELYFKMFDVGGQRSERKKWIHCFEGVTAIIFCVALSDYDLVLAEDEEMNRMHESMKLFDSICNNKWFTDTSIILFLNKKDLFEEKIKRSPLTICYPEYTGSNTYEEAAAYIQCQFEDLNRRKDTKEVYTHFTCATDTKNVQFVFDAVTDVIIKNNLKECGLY
Sa growth 42C: S. aureus growth inhibition at 42 and 30 °C, primary screen, LtaS inhibitor project, RN4220, two temperatures; relative growth, % (no concentration beside the values); 170,000 tested, 0.53% active; AID 720641, 2013; OD600, 20 h, 42 °C; active compounds read low;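 active means growth at 42 °C up to 50% and 20 or more points under that at 30 °C, or under 10% at both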;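 further: 300 nL library stock went into each well; scaled to the means of positive and negative controls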
HCMV UL50-53 inh: inhibitors of HCMV UL50-UL53 interaction, biochemical, HTRF | HCMV UL50-UL53 nuclear egress complex (human cytomegalovirus) | normalized percent inhibition | inhibition, % (no concentration beside the values) | 190,000 tested, 0.15% active | AID 1918969, 2023;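 active means both replicates at 50% or more, plus weaker picks with an unusually low signal ratio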;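 further: stock transfer was 100 nL into about 20 µL; 0% = negative control wells and 100% = wells with untagged competitor protein; inactives centre near -12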
Sa growth 42C second temp: recorded beside Sa growth 42C, whose call it bears; relative growth, %; measured here: growth at 30 °C;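 optical density after 20 h as mean of two plates; 100% = untreated growth and lower means inhibition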
An asterisk follows results filed as active; · = not tested or not shown; & = joins results of further samples.

Screens in order: GIV Gai3 FP	Sa growth 42C	Sa growth 42C second temp	HCMV UL50-53 inh
CC1CC(N(C(=O)c2ccc(Cl)cc2)c2ccccc2)c2ccccc2N1C(=O)c1ccco1 (configuration not stated)
    98	80	78	·
COc1cc(OC)cc(C(=O)N2c3ccccc3N3C(c4c(C)cc(C)cc4C)=NON23)c1
    101	92	89	-6
Cc1ccc(NC(=O)CN2C(=O)C(C)(C)c3ccccc32)nc1
    103	·	·	-11
CCOC(=O)c1sc(Nc2ccccn2)nc1C
    104	119	106	-19
CC1=C(c2ccc(C(C)C)cc2)S(=O)(=O)NC1=NCc1ccc(OC(C)C)cc1
    99	127	88	-17
O=C(Nc1sc2c(c1C(=O)O)CCC2)c1ccccc1
    ·	196	88	-12
Cc1ccc(CSCCC(=O)N2CCN(c3ccc(F)cc3)CC2)cc1
    107	75	103	·
CC1=C(c2ccc(C)c(C)c2)S(=O)(=O)N=C1N1CCc2ccccc2C1
    103	·	·	14
CCc1ccccc1NC(=O)CSc1ncccc1C(=O)O
    101	105	92	·
Cc1ccccc1OCC1CN(CN(CC(C)C)CC(C)C)C(=O)O1 (configuration not stated)
    99	88	94	·
CCC(=O)N1CCc2cc(S(=O)(=O)N(C)CC(OC)OC)ccc21
    94	89	92	-19
CCOc1ccc(NC(=O)CC(=O)Nc2ccc(OCC)cc2)cc1
    ·	99	104	14
N=c1ccn2c(n1)OC1[C@@H](O)[C@@H](CO)O[C@H]12 (some centres not stated)
    104	·	·	-23
Cc1cc(=O)oc2c1ccc1occ(NO)c12
    102	93	101	-19
Cc1cccc(OCC(=O)NCc2ccc3c(c2)CCN3C(=O)c2ccc(Cl)cc2)c1
    106	108	94	·

Molecules shown so far containing a COOH group, in the order listed:
Screens in order: GIV Gai3 FP	Sa growth 42C	Sa growth 42C second temp	HCMV UL50-53 inh
O=C(Nc1sc2c(c1C(=O)O)CCC2)c1ccccc1
    ·	196	88	-12
CCc1ccccc1NC(=O)CSc1ncccc1C(=O)O
    101	105	92	·

Next compounds:
Screens in order: GIV Gai3 FP	Sa growth 42C	Sa growth 42C second temp	HCMV UL50-53 inh
COC(CNC(=O)c1cccc(-n2c(=S)[nH]c3cc(Cl)ccc3c2=O)c1)OC
    103	123	88	·
Cc1ccc(C)c(C2C3CCCC=C3C(C#N)=C(N)C2(C#N)C#N)c1 (configuration not stated)
    ·	84	76	-17
COC(=O)c1c(-c2cccs2)csc1NC(=O)COc1ccc(C)cc1
    112	85	92	-5
O=C1CC(c2ccccc2)Cc2[nH]c(=O)c(-c3nc(-c4ccc(Cl)cc4)cs3)cc21 (configuration not stated)
    102&103	89	95	-10&-18
COc1ccc(-n2nc3ccc(NS(C)(=O)=O)cc3n2)cc1Cl
    107	119	83	-51
O=c1ccc(N2CCCN(S(=O)(=O)c3cccc4nsnc34)CC2)nn1-c1ccccc1
    99	·	·	-70
COc1ccc(S(=O)(=O)Nc2cc(C(=O)NC3CCCCCCC3)ccc2N2CCOCC2)cc1
    101	102	84	-9
CCCn1c(=O)c2ccccc2n2c(SCCCc3ccccc3)nnc12
    ·	101	101	-8
O=C1CC(c2ccco2)Sc2ccccc2N1 (configuration not stated)
    100	80	86	-55
CC1CCc2c(sc(NC(=O)CN3CCN(S(=O)(=O)c4cccs4)CC3)c2C(=O)OC(C)C)C1 (configuration not stated)
    ·	97	100	-2
c1ccc(-c2nc3nc4c(c(Nc5ccc6c(c5)OCCO6)n3n2)CCC4)cc1
    115	·	·	8
CC1(C2CCC3C4CCC5CC6(C/C(=N\O)C5(C)C4C(O)CC32C)OCCO6)OCCO1 (configuration not stated)
    102	118	108	-14
Cc1ccc(-n2c(=O)c3c(c4cc(C)ccc4n3C)n(CC(=O)NCc3ccccc3)c2=O)cc1
    99	91	87	·
CC(OC(=O)c1ccc(S(=O)(=O)C(F)F)cc1)C(=O)N1CCOCC1 (configuration not stated)
    ·	75	96	-28
COCc1cc(=O)[nH]c(/N=C(\N)Nc2ccc(C)cc2C)n1
    104	96	80	-24
Nc1ncn(C(=O)c2ccccc2)n1
    101	114	101	·
CCOC(=O)N1CCN(C(=O)CCN2C(=O)/C(=C/c3ccc4c(c3)OCO4)SC2=S)CC1
    102	·	·	-27
COc1cccc(NC(=O)COC(C)=O)c1
    ·	123	91	-5
O=C(NC1CCCCCC1)c1n[nH]c(=O)c2ccccc12
    105	99	99	6
O=c1ccc(S(=O)(=O)N2CCCC2)c[nH]1
    ·	92	99	-14
CCCn1c(NC(=O)C2CCCC2)nc2ccccc21
    ·	-0.9*	-0.7*	-14
C=CCn1c(=O)c2ccc(C(=O)NC(C)C)cc2n2c(=O)n(CC(N)=O)nc12
    104	·	·	-18
CCCNC(=O)c1ccc(OC)c(OC(=O)c2ccccc2)c1
    ·	87	91	4
Cc1ccccc1Cn1cc(S(=O)(=O)c2ccc(Cl)cc2)c(=O)c2cc3c(cc21)OCO3
    102	106	91	0
COc1ccc(Cl)cc1NC(=O)CSc1nc2nccnc2c(=O)n1CC1CCCO1 (configuration not stated)
    97	93	83	·
COc1ccc(CNC(=O)Cc2c(C)c3ccc(O)cc3oc2=O)cc1
    99	90	86	-21
Cc1cc(C)cc(Nc2nc3ccccc3nc2-n2nc(C)cc2C)c1
    102	105	95	-6
O=C(CNC(=O)c1ccc(-c2noc(C3CCCC3)n2)cc1)NC1CCCc2ccccc21 (configuration not stated)
    111	·	·	-24
Cc1cc(Cl)ccc1NCC(=O)N/N=C/c1ccc2c(c1)OCO2
    97	95	83	-15
Nc1nc(NCc2ccccc2)c(I)c(=O)[nH]1
    50*	98	93	66*

Printed as active in GIV Gai3 FP, of those listed so far:
SMILES | GIV Gai3 FP | Sa growth 42C second temp
Nc1nc(NCc2ccccc2)c(I)c(=O)[nH]1 | 50* | 93

The list continues.
Screens in order: GIV Gai3 FP	Sa growth 42C	Sa growth 42C second temp	HCMV UL50-53 inh
O=C(NC1CCCCC1)N1CCn2cccc2C1c1cccnc1 (configuration not stated)
    107	115	92	-14
CC1CCC(NC(=O)Cn2ncc3ccccc32)CC1 (configuration not stated)
    105	88	93	4
O=C(Nc1nc(-c2ccc(Cl)cc2)cs1)C1c2ccccc2Oc2ccccc21
    100	91	80	·
COc1ccc(-c2cnc(C)o2)cc1S(=O)(=O)Nc1cccc(C(F)(F)F)c1
    104	99	83	·
COc1ccc(-c2nc(CSc3nnc(C)n4c3cc3sccc34)c(C)o2)cc1
    111	83	87	·
COc1ccc(S(=O)(=O)N2CCN(C(=S)NCC3CCCO3)CC2)cc1OC (configuration not stated)
    108	108	103	21
Cc1ccc(C)c(Cn2c(=O)n(CCc3ccccc3)c(=O)c3c(C)c(C)sc32)c1
    103	103	91	-12
Cc1ccccc1Nc1nn2c(=O)c3ccc(C(=O)NCCc4ccc(Cl)cc4)cc3nc2s1
    103	95	61	·
CCc1ccc(-c2cc3c(N4CCN(c5ccccc5)CC4)nccn3n2)cc1
    102	83	91	8
CCOc1ccc(C2C(C(=O)Nc3ccccc3)=C(C)Nc3nc(SCc4cccc(OC)c4)nn32)cc1 (configuration not stated)
    94	116	86	·
CC(O)c1cccc2ccccc12 (configuration not stated)
    101	93	89	-46
Cc1ccc(C)c(NC(=O)CCn2ccc(C)n2)c1
    98	107	94	-9
COc1cc2c(cc1NC(=O)C(C)Sc1nc3ccccc3c(=O)[nH]1)oc1ccccc12 (configuration not stated)
    ·	96	93	11
Cc1cccn2c(=O)cc(COc3cccc(NC(=O)c4cccc(Cl)c4)c3)nc12
    101	105	101	·
CCCn1c(SC(C)C(=O)C23CC4CC(CC(C4)C2)C3)n[nH]c1=O (configuration not stated)
    ·	104	89	-8
O=C1CC(c2ccsc2)c2c(-c3ccc(Cl)cc3)nn(-c3ccccc3)c2N1 (configuration not stated)
    101	·	·	-18
CCC(CC)C(=O)N1CCc2cc(OC)c(OC)cc2C1COc1ccc2c(C)cc(=O)oc2c1 (configuration not stated)
    102	89	93	-53
COc1cccc(CNc2nccn(-c3ccc(OC)c(OC)c3)c2=O)c1
    105	118	96	·
CCN(C(=O)C1CCN(S(=O)(=O)c2cccc3nonc23)CC1)c1ccccc1
    97	106	91	·
CN(C(=O)CN(CCO)CC(=O)N(C)C(C)(C)Cc1ccccc1)C(C)(C)Cc1ccccc1
    ·	90	74	-49&-22
CCC(Oc1ccccc1)C(=O)N1CCN(c2ccc(OC)cc2)CC1 (configuration not stated)
    100	100	93	-11
O=C(COC(=O)c1ccc(-n2cnnn2)cc1)c1ccc(S(=O)(=O)N2CCCCC2)cc1
    ·	89	97	4
NC(=O)c1ccc(OCC(=O)N(c2ccccc2)C2CCS(=O)(=O)C2)cc1 (configuration not stated)
    ·	91	94	-14
COc1ccc(NC(=O)CC2Nc3cccc4cccc(c34)NC2=O)cc1 (configuration not stated)
    100	81	88	-51
COc1ccc(Cl)cc1NC(=O)Cn1nnc(C(=O)NCc2ccc3c(c2)OCO3)c1N
    106	106	85	-16
O=C(Nc1cc(S(=O)(=O)c2ccccc2)cs1)c1ccc(Cl)cc1
    103	92	72	-28
Cc1cccc(N2CCN(C(=O)Cn3nc(C)c4sc5ccccc5c4c3=O)CC2C)c1 (configuration not stated)
    100	97	91	3
COc1ccccc1NC(=O)N(Cc1cc2c(C)ccc(C)c2[nH]c1=O)CC1CCCO1 (configuration not stated)
    105	89	97	-28
O=C(CCN1C(=O)/C(=C\c2cccs2)SC1=S)Nc1cccc(C(=O)O)c1
    141	·	·	-104
CCc1ccc(NC(=O)Cn2ncn3c(cc4ccccc43)c2=O)cc1
    113	97	75	4
CO/N=C/c1nc2ccccc2s1
    100	91	81	-142
COC(=O)c1sc(NC(=O)c2ccc3c(c2)OCO3)c(C#N)c1C
    106	100	87	-26
CC(C)c1nnc2sc(-c3cccc4ccccc34)nn12
    99	99	73	-46
CC1(C)C2CCC1(CS(=O)(=O)Nc1ccccc1)C(=O)C2 (configuration not stated)
    ·	108	99	8
CCc1ccc(NC(=O)NCc2nc(-c3ccccc3)oc2C)cc1
    108	·	·	5
COc1ccc2oc(=Nc3cccc(C(F)(F)F)c3)c(C(=O)NC(C)=O)cc2c1
    97	·	·	-13
O=C(NCCN1CCCCC1)c1ccccn1
    ·	84	89	-7
O=C(Nc1ccc(O)c(-c2nc3ccccc3o2)c1)c1cccs1
    103	95	90	-13
Cc1ccc2c(c1)C1C=CCC1C(c1ccc(N=Cc3ccccc3)cc1)N2 (configuration not stated)
    119	125	97	·
CC(=O)Nc1sc2c(c1CN1CCCCC1)CCCC2
    ·	97	103	26
O=C(Nc1cccnc1Oc1ncnc2cc(Cl)ccc12)c1ccc(F)cc1
    102	81	86	-12
O=C(Cn1ccn2nc(-c3ccc4c(c3)OCO4)cc2c1=O)NCc1ccc(Cl)cc1
    101	·	·	-23
CCOc1cc(-c2noc(CCCC(=O)NC3CCCCC3)n2)cc(Br)c1OC
    103	93	88	-7
O=C(/C=C/c1ccccc1)Nc1ccc(Br)cc1
    101	117	110	·
CC(C)NS(=O)(=O)c1ccc(N2C(=O)c3ccccc3C2=O)cc1
    100	102	98	-55

A second format for seven compounds above.
structure	GIV Gai3 FP	Sa growth 42C	Sa growth 42C second temp	HCMV UL50-53 inh
CC(C)c1nnc2sc(-c3cccc4ccccc34)nn12	99	99	73	-46
CC1(C)C2CCC1(CS(=O)(=O)Nc1ccccc1)C(=O)C2 (configuration not stated)	·	108	99	8
CCc1ccc(NC(=O)NCc2nc(-c3ccccc3)oc2C)cc1	108	·	·	5
COc1ccc2oc(=Nc3cccc(C(F)(F)F)c3)c(C(=O)NC(C)=O)cc2c1	97	·	·	-13
O=C(NCCN1CCCCC1)c1ccccn1	·	84	89	-7
O=C(Nc1ccc(O)c(-c2nc3ccccc3o2)c1)c1cccs1	103	95	90	-13
Cc1ccc2c(c1)C1C=CCC1C(c1ccc(N=Cc3ccccc3)cc1)N2 (configuration not stated)	119	125	97	·

Next section.
Screens in order: GIV Gai3 FP	Sa growth 42C	Sa growth 42C second temp	HCMV UL50-53 inh
CC1=CCC2C(=O)N(c3ccc(C(=O)Nc4ccccc4)cc3)C(=O)C2C1 (configuration not stated)
    100	89	80	·
COc1ccc(OC)c(NC(=O)Cn2cc(C(=O)c3ccc(Cl)cc3)c(=O)c3cc(OC)ccc32)c1
    101	102	92	-12
N#Cc1c(-c2ccccc2)c[nH]c1N
    101	·	·	-15
Cc1cccc(NC(=O)CNC(=O)COc2ccc3oc4ccccc4c3c2)c1C
    ·	84	101	-5
Cc1onc(-c2ccccc2Cl)c1C(=O)Oc1ccccc1F
    107	124	77	·
O=C(Nc1ccccc1)C1C(=O)NC23CCCCC2C1c1ccccc1O3 (configuration not stated)
    104	107	91	-5
Cc1ccc2c(C(=O)CNc3nncs3)c(C)[nH]c2c1
    96	95	86	·
COc1nc(N)nc(-c2csc(C)n2)n1
    106	120	87	-2
Cc1cc(C)n(-c2ccc(C(=O)Nc3ccccc3)cc2)n1
    106	118	103	3
O=S(=O)(NCc1ccccc1Cl)c1cccc2nsnc12
    100	86	79	-121

Source: PubChem BioAssay (ICCB-Longwood Screening Facility, Harvard Medical School)
